gsp antag – antagonists of gsp mutant (McCune-Albright syndrome); gsp-mutant cells, cAMP HTRF, 30 min; control for the full effect not named in the record; AID 624288; actives 0.4% (n = 340,000); Potency, µM (doses to about 76.9 µM), for inactives: at the highest dose activity change, negative = inhibition, most hits filed as inhibitors; active = falling curve of any shape with a large fitted effect; inconclusive = falling curve, mostly with a smaller effect; inactive = flat or rising curve; cell line not stated here;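 also: intracellular cAMP measured with PDE inhibitor Ro 20-1724 present during compound exposure; potency is read from the fitted curve at half-maximal effect; % is scaled to controls: 0 for no effect and ±100 for the full control effect; nearly all actives have a fitted effect of over 65% in size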
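G418-selected cells were plated in DMEM/10% FBS for 16-24 h at 37C, then treated with compounds plus the PDE inhibitor […] (300 uM solution added) for 30 min at 37C. Intracellular cAMP was measured by HTRF after 30 min lysis at room temperature.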
TRPML1 blocker – human mucolipin-1 channel inhibition; Q9GZU1; activity change, negative = inhibition, % (no concentration beside the values); AID 624415; TRPML1-inducible cells, Ca2+ dye fluorescence, FDSS; stronger effect = lower value; inhibition of EC80 agonist-evoked calcium signal; actives 0.02% (n = 390,000); in the data active means activity change below about -50%; inconclusive means about -30% to -50%; inactive means above about -30%;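 also: stimulus is agonist 54-4 at its EC80 concentration; % is scaled to controls: 0 for no effect and ±100 for the full control effect; compound concentration not given in the record; the text of the record puts the active cut at -80%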
Target sequence (Q9GZU1 whole entry, looked up): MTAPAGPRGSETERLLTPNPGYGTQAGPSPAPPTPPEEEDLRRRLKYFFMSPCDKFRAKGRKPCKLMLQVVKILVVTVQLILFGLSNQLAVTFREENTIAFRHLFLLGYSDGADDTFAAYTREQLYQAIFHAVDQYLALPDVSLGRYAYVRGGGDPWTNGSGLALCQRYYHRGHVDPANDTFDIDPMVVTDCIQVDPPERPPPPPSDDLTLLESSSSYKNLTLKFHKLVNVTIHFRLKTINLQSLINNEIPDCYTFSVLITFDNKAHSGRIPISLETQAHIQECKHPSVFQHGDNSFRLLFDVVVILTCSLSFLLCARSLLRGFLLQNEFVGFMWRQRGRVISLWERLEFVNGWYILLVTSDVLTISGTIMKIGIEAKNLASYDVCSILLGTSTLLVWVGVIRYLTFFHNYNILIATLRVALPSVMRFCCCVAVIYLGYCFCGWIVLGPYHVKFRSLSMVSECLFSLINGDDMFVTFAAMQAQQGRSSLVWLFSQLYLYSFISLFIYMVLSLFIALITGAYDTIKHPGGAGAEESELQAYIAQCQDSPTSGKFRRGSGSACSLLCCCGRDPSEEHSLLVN
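TRPML1-DL cells, Tet-induced overnight (~16 h, 37 °C) at 1,500 cells/well, were loaded with Ca8 no-wash dye plus quencher for 45-90 min at room temperature. Compounds were pinned during FDSS kinetic reading; agonist 54-4 at EC80 (4 uM final) then added.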
Menin-MLL FL inh – displaces fluorescein MLL peptide from human menin; AID 1766; 290,000 tested, under 10 active; Fluorescence polarization, fluorescein-MLL peptide displacement from menin; FP activity change, % at 61.4 µM; inconclusive = falling polarisation curve, or a change in total fluorescence; inactive = total fluorescence flat and polarisation flat or rising; no compound was filed as active; the % refers to the polarisation; negative = inhibition;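 also: % of control where 0% means no effect; inhibitors lower the polarisation; unlabelled MLL peptide was the positive control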
gsp agonist – gsp mutant agonism. gsp mutant cells, cAMP HTRF, 30 min; control for the full effect not named in the record. Potency, µM (series often up to 76.9 µM), without a hit: at the top dose activation (cAMP increase), hits mostly activators. actives 0.13% (n = 340,000). AID 624287; active = well fitted activation curve with a large enough effect; inconclusive = small, poorly fitted or top-dose-only effect, or another doubt; inactive = no such curve, though single readings can be large or run the other way; cell line not stated here;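 also: phosphodiesterase inhibitor Ro 20-1724 added with compounds to block cAMP breakdown; potency is read from the fitted curve at half-maximal effect; nearly all actives have a fitted effect of over 60% in size; about a fifth of the inactives were tested at one dose only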
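Cells in DMEM/10% FBS with G418 were pretreated with compounds in DMSO plus […] (300 uM stock) for 30 min at 37C. cAMP was measured by HTRF (cAMP-d2 plus anti-cAMP antibody-K) after 30 min at room temperature.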
ClpP mod – qHTS Assay for Activators of ClpP | purified B. subtilis ClpP, FRET peptide cleavage, 20 min | Potency, µM (doses to about 57.5 µM), without a hit: top-dose activity change, negative = active | actives 1.9% (n = 340,000); active = well fitted falling curve with a large enough effect; inconclusive = small, poorly fitted or top-dose-only effect; inactive = no such curve, though single readings can be large or run the other way; also: potency is read from the fitted curve at half-maximal effect; the source files actives as falling curves though it sought activators and does not explain the sign; nearly all actives have a fitted effect of over 65% in size; many hits overshoot -100%
Target sequence (P80244 whole entry, looked up): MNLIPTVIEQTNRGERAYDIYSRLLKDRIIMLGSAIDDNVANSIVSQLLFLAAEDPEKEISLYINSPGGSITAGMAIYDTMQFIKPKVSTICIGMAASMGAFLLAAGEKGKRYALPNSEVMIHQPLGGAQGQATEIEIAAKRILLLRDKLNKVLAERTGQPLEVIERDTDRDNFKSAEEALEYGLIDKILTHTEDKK
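Purified B. subtilis ClpP, 10 microg/mL final in Tris/HCl pH8 with KCl, BSA, glycerol and Tween-20, cleaved an Abz/nitrotyrosine-quenched decapeptide. Fluorescence (ex 320, em 430) was read at 0 and 20 min at room temperature. Delta was normalized to 5.8 microM ADEP and DMSO/no-enzyme controls.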
TRPML1 ag – human mucolipin-1 channel agonism; TRPML1-expressing cells, Ca2+ dye fluorescence, FDSS; host cell line not named in the record; reference of the full effect not given here; actives 0.12% (n = 410,000); activation, % (concentration not given with the values); Q9GZU1; in the data active = activation above about 50%; inconclusive = about 30% to 50%; inactive = below about 30%; also: 0% is about no effect; the text of the record puts the active cut at 80%
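Agonist activity was taken from a 110 s kinetic Ca2+ dye read on the FDSS after pinning compounds onto TRPML1-DL cells. The cells were seeded at 1,500/well with Tet inducer, incubated about 16 h, then dye-loaded at room temperature.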
The depositor's hits bear a star; u = inconclusive; x = not tested or not shown; [ ] = another dose, or the depositor's remark.

SMILES | gsp antag | TRPML1 blocker | Menin-MLL FL inh | gsp agonist | ClpP mod | TRPML1 ag
O=C(O)c1ccc(F)c(S(=O)(=O)Nc2ccccc2)c1 | 8.6% | 1.3 | 0.8 | 3.5% | 0.4% | 0.2
COc1ccc(CC(=O)NCCN2CCCC2)cc1 | -8.8% | 9.3 | 4.4 | 15.3% | -1.9% | -0.2
Cc1ccc(-c2nc(-c3nccc4ccccc34)oc2-c2ccccc2)cc1 | 1.3% | -9.7 | 7.6 | u | 4.5% | -0.5
CCOC(=O)c1ccc(CSc2nncn2N)o1 | 4.3% | -6.4 | 0.1 | 2.6% | 0.0% | 1.0
Brc1ccc(-c2csc(Nc3nc(-c4ccc(Br)cc4)cs3)n2)cc1 | 7.7% | -16.6 | 2.9 | 0.8% | -3.9% | -0.5
CC(C)(C)NC(=O)C(c1ccc(F)cc1)N(Cc1cccs1)C(=O)c1ccc(CN2CCOCC2)o1 (stereo not drawn) | 5.5% | 0.6 | -6.8 | 0.2%[15.4 µM] | -5.2% | -0.8
COC(=O)c1nnn(-c2nonc2N)c1-c1cccs1 | -6.1% | -2.9 | 3.4 | 17.0% | -5.4% | -0.8
Cc1ccc(N(Cc2cc3cc(C)ccc3[nH]c2=O)C(=O)c2cccs2)cc1 | 15.8% | 26.6 | 0.8 | -4.0% | u | 0.7
Cc1ccc(Cl)cc1N1CCN(S(=O)(=O)c2ccc3c(c2)C(C(C)C)C(=O)N3)CC1 (stereo not drawn) | x | 2.7 | x | x | 2.0% | 2.9
CCc1c(C)nc2ncnn2c1N1CCC(C(=O)NCc2cccs2)CC1 | 3.4% | 6.9 | 0.2 | u | 2.4% | -0.4
O=C(NC1CCC(O)CC1)c1cc(Cl)c2c(c1)OCCO2 (stereo not drawn) | -0.3% | -1.9 | x | 1.5%[15.4 µM] | 0.0% | 0.0
COC(=O)/C(=C(O)\C=C\c1ccccc1[N+](=O)[O-])c1nc2ccccc2[nH]1 | u | -5.7 | -0.7 | u | x | 2.6
Cc1ccccc1OCC(=O)Nc1ccc(N2CCN(S(C)(=O)=O)CC2)cc1 | -8.3% | 1.6 | 0.4 | 17.4% | 0.2% | -0.1
CCc1ccc(NC(=O)NNC(=O)CCc2ccccc2)cc1 | -12.0% | -1.3 | -4.4 | 0.4% | -1.2% | 0.7
COC(=O)c1ccc(CSc2nnc(-c3c[nH]c4ccccc34)n2-c2ccccc2)cc1 | u | -8.7 | 4.3 | -3.4%[15.4 µM] | -0.7% | -0.4
CCCCN(C)c1c(C)nc2ccc(C(=O)N(CC)CCN(C)C)cn12 | x | 9.8 | x | x | -6.4% | 0.3
Cc1cc(C)n(C(C)Sc2ccccc2)n1 (stereo not drawn) | 3.1% | -5.9 | x | x | 2.5% | -0.9
COCCN(CC(=O)Nc1cccc(C)c1C)C(=O)C1(c2ccc(Cl)cc2)CCC1 | u | 1.3 | x | 20.4% | 0.3% | 0.1
COc1ccccc1CCNC(=O)C1CCN(c2nc3ccccc3nc2C(F)(F)F)CC1 | x | 8.6 | x | x | -0.1% | 0.0
CC1=C(C(=O)OC2CCCC2)C(c2ccccc2C(F)(F)F)CC(=O)N1 (stereo not drawn) | x | 11.0 | x | x | -1.3% | -0.9
Cc1nn(CCCC(=O)NCCc2ccccc2)c(C)c1[N+](=O)[O-] | 0.8% | -18.6 | -2.2 | 10.9% | x | -0.7
CC(C)(C)NC(=O)c1cc(-c2ccccc2)n[nH]1 | 5.9% | -0.9 | -7.4 | -8.5%[15.4 µM] | 2.8% | 0.4
Cc1ccc(Cn2c(SCc3ccc(C(=O)O)cc3)nc3cccnc32)cc1 | x | 12.6 | x | x | 28.2µM* | -0.3
Cc1cc(SCC(=O)N/N=C/c2cccnc2)nc2c(C)cccc12 | -7.0% | 11.4 | 1.0 | 11.7% | 0.7% | -0.3
CC(C#N)Sc1nc2ccccc2c(=O)n1-c1ccccc1 (stereo not drawn) | 1.6% | 13.1 | 2.7 | -42.7% | -1.4% | 1.6
O=C(O)Cn1c(=O)c2c3c(sc2n(Cc2ccccc2F)c1=O)CCCC3 | -27.4% | -23.5 | 0.3 | -9.9%[15.4 µM] | -4.4% | -0.9
O=C(COC(=O)Cc1ccccc1F)NC(=O)NC1CCCC1 | 7.6% | 11.1 | x | -18.4% | 2.3% | 0.0
CC1=C(C(=O)OC2CCCCCCC2)C(c2cccc(O)c2)NC(=O)N1 (stereo not drawn) | 7.9% | 4.9 | -1.1 | -17.4% | 0.0% | 0.4
O=C(C1CC(Cl)CN1S(=O)(=O)c1ccc(Cl)cc1)N1CCOCC1 (stereo not drawn) | 7.0% | -14.6 | -0.9 | 5.2%[15.4 µM] | x | -0.6
COc1ccc(CCNC(=O)c2ccc3c(c2)N(Cc2ccc(F)cc2)C(=O)c2ccccc2S3(=O)=O)cc1OC | x | 11.7 | x | x | 2.1% | 1.6

Full records, quoted from the list. Values in the order: gsp antag, TRPML1 blocker, Menin-MLL FL inh, gsp agonist, ClpP mod, TRPML1 ag
CC1=C(C(=O)OC2CCCCCCC2)C(c2cccc(O)c2)NC(=O)N1 (stereo not drawn) across the screens: 7.9%, 4.9, -1.1, -17.4%, 0.0%, 0.4
Cc1cc(SCC(=O)N/N=C/c2cccnc2)nc2c(C)cccc12 across the screens: -7.0%, 11.4, 1.0, 11.7%, 0.7%, -0.3
Cc1nn(CCCC(=O)NCCc2ccccc2)c(C)c1[N+](=O)[O-] across the screens: 0.8%, -18.6, -2.2, 10.9%, x, -0.7

Following part
SMILES | gsp antag | TRPML1 blocker | Menin-MLL FL inh | gsp agonist | ClpP mod | TRPML1 ag
O=C(CSc1nccn1Cc1ccccc1)NCc1ccco1 | x | -7.2 | x | x | 2.2% | 0.5
COc1ccc(C2CC(c3ccc(OC)cc3O)=NN2C(=O)c2ccccc2)cc1 (stereo not drawn) | -5.1% | 65.4 | -4.7 | -36.1%[inhibitor] | x | 3.3
O=C(C1CCC(CNS(=O)(=O)c2cccc3cccnc23)CC1)N1CCCC1 (stereo not drawn) | -7.4% | 5.7 | 0.5 | u | -0.5% | 0.9
O=C(COc1ccccc1)N1CCN=C1c1ccccc1 | 0.9% | 1.7 | 2.9 | -5.1% | -4.2% | -0.2
O=C(Cc1cc(=O)[nH][nH]1)N/N=C/c1c(F)cccc1Cl | -13.6% | -29.8 | 0.1 | u | 1.3% | 0.6
CC(C)c1ccc(C(=O)N2CCCCC2c2cc(C(=O)Nc3ccncc3)no2)cc1 (stereo not drawn) | x | 8.5 | x | x | -0.6% | 1.7
CCOc1ccc2nc(NC(=O)Cc3cccs3)sc2c1 | -3.7% | 0.3 | 5.5 | 1.1% | -4.2% | 0.3
O=S(CCc1ccncc1)Cc1ccccc1 (stereo not drawn) | 18.1% | -10.7 | 1.8 | 15.7% | 1.3% | 1.2
CCOc1ccc(S(=O)(=O)Nc2ccc(C(=O)N(CC)CC(=O)NCc3cccs3)cc2)cc1 | x | -1.5 | x | -72.6%[inhibitor] | -0.4% | -0.6
COc1cccc(/C=C/C(=O)NCc2ccc(S(N)(=O)=O)cc2)c1 | 7.0% | -1.8 | -0.7 | -18.4%[15.4 µM] | x | -0.2
O=C(CSc1nnc2scc(-c3ccccc3)n12)N1CCN(Cc2ccccc2)CC1 | -0.9% | 8.3 | 7.6 | 13.4% | -2.0% | -0.3
Cn1c(=O)c2c(ncn2CC(=O)N2CCN(S(=O)(=O)c3ccccc3)CC2)n(C)c1=O | 1.3% | -9.6 | -0.5 | 2.4% | -1.6% | 0.5
COc1ccccc1N1CCN(C(CNS(=O)(=O)c2ccc(C)cc2)c2cccnc2)CC1 (stereo not drawn) | 0.2% | 42.3 | 6.7 | 6.4% | -0.8% | -1.2
CCCCSc1ncnc2c1ncn2C1CCCCO1 (stereo not drawn) | -4.9% | -10.8 | x | -4.1% | x | 0.6
CCn1c(=O)c2c(n3cnnc13)-c1ccccc1CC21CCCCC1 | 10.3% | -15.3 | 1.2 | -25.8% | -4.4% | -1.6
Cc1cc(=O)[nH]c(N/N=C/c2ccccc2C(F)(F)F)n1 | x | u | -1.8 | -3.0%[15.4 µM] | x | -0.7
COc1cc(C(=O)Nc2ccc3c(c2)Cc2cc(NC(=O)c4cc(OC)c(OC)c(OC)c4)ccc2-3)cc(OC)c1OC | 6.1% | -11.8 | 0.0 | -0.1%[15.4 µM] | 5.9% | -0.6
O=C(COc1ccccc1F)Nc1ccc2nc(SCCOc3ccccc3)sc2c1 | x | -11.6 | x | x | -14.5% | -0.2
Nc1cc(C(=O)O)c(Oc2ccc(Cl)cc2Cl)cc1C(=O)O | 19.7% | -3.4 | -0.2 | -25.2% | 18.6% | -0.6
O=C(O)Cc1ccc(NC2(c3ccccc3)C(=O)c3ccccc3C2=O)cc1 | x | 7.0 | x | x | 1.5% | 1.5
Cc1ccc(CNC(=O)/C=C/C(=O)O)cc1 | 8.7% | 11.3 | -1.5 | -156.5%[inhibitor] | 1.2% | 0.7
O=C(NC1CC1)[C@@H]1CSC2c3ccccc3C(=O)N21 (stereo partly drawn) | 10.3% | -2.3 | 1.1 | 2.8% | -1.8% | 0.3
CC(=O)Nc1nonc1-c1nnc(SCc2ccccc2)n1C | x | -2.9 | x | x | 0.2% | 1.2
CCOc1ccc(-c2nnc3ccc(SCC(=O)Nc4nc5ccccc5s4)nn23)cc1 | 4.2% | -3.2 | 2.8 | 41.7% | 105.8% | 0.8
O=C(C1=NN(c2ccccc2)C2C(=O)N(c3ccccc3Cl)C(=O)C12)c1ccccc1 (stereo not drawn) | -3.3% | -3.4 | u | 6.4%[15.4 µM] | 0.4% | u
O=[N+]([O-])c1ccc(O)c(Nc2ncnc3ccccc23)c1 | -6.2% | 10.7 | 0.5 | u | 0.0% | 0.6
O=S(=O)(c1ccc2nc(COc3ccc(Cl)cc3Cl)[nH]c2c1)N1CCOCC1 | 6.2% | 8.8 | -0.2 | -15.5% | -1.9% | 1.0
COc1cc(/C=N/n2nnnc2N)ccc1OCc1c(C)no[n+]1[O-] | 1.7% | -1.3 | 0.3 | u | -18.1% | 0.2
O=C/C(=C\Nc1ccc(Br)cc1)c1nc2ccccc2o1 | x | 15.0 | 0.5 | -8.6%[15.4 µM] | x | 2.0
CCn1ncc(C(=O)Nc2ccccc2C)c1C | 6.5% | -7.8 | 2.2 | -1.9%[15.4 µM] | -12.4% | 0.5
CCc1ccc(/C=C(/C#N)c2nc(-c3ccc(C)cc3)cs2)cc1 | x | -4.4 | x | x | -1.1% | 0.0
CC(=O)c1ccc(NC(=O)Nc2ccc(NS(=O)(=O)c3ccc(C)cc3)cc2)cc1 | u | -11.9 | 1.1 | -34.3%[inhibitor] | -0.6% | 2.7
O=C(N/N=C/C(Cl)=C/c1ccc([N+](=O)[O-])cc1)C(=O)Nc1ccccc1C(=O)O | -3.6% | 41.2 | 12.3 | 11.8%[15.4 µM] | x | 1.5
